gsp antagonist = gsp mutant antagonism. 0.4% of 340,000 active. Potency, µM (highest dose often 76.9 µM), without a hit: top-dose activity change, negative = inhibition, actives largely listed as inhibitors. gsp-mutant cells, cAMP HTRF, 30 min; control for the full effect not named in the record. AID 624288; active = falling curve of any shape with a large fitted effect; inconclusive = falling curve, mostly with a smaller effect; inactive = flat or rising curve; cell line not stated here;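 note: intracellular cAMP measured with PDE inhibitor Ro 20-1724 present during compound exposure; potency is the fitted concentration of half-maximal effect; % is set by controls: 0 for no effect and ±100 for the full control effect; nearly all actives have a fitted effect of over 65% in size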
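HTRF cAMP read-out (cAMP-d2 plus anti-cAMP antibody-K in lysis buffer, 30 min RT). Before lysis, cells are exposed to compounds with […] for 30 min at 37C in DPBS containing Ca/Mg, BSA and Tween 20.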
TRPML1 blocker = inhibitors of human TRPML1 channel. Q9GZU1. 0.02% of 390,000 active. activity change, negative = inhibition, % (concentration not given with the values). TRPML1-inducible cells, Ca2+ dye fluorescence, FDSS; stronger effect = lower value; inhibition of EC80 agonist-evoked calcium signal; in the data active means activity change below about -50%; inconclusive means about -30% to -50%; inactive means above about -30%;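 note: stimulus is agonist 54-4 at its EC80 concentration; % is set by controls: 0 for no effect and ±100 for the full control effect; compound concentration not given in the record; the text of the record puts the active cut at -80%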
Target sequence (Q9GZU1 whole entry, looked up): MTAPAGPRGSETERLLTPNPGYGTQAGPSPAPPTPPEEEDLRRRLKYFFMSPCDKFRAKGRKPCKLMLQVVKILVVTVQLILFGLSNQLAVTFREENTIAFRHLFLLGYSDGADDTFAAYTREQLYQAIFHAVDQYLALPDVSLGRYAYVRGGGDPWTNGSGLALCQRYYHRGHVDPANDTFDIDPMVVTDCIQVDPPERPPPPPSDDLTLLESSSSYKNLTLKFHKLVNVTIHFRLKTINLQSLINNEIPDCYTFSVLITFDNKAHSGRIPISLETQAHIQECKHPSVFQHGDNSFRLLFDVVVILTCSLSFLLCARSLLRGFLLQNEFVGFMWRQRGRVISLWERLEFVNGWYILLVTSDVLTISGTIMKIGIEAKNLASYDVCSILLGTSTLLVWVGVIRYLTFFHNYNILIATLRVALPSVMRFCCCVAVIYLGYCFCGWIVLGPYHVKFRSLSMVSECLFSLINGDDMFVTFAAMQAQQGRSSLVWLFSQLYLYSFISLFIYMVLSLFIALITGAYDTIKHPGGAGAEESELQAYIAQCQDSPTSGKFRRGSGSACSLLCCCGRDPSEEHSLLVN
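Calcium fluorescence in TRPML1-DL cells induced overnight with Tet: a 110 s read after compound pin addition, then a 110 s antagonist read after challenge with 54-4 at 4 uM final (EC80).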
gsp ag = activates gsp, the McCune-Albright syndrome mutation; Potency, µM (top dose mostly 76.9 µM), for inactives: at the top dose activation (cAMP increase), usual class: activators; gsp mutant cells, cAMP HTRF, 30 min; control for the full effect not named in the record; 0.13% of 340,000 active; active = well fitted activation curve with a large enough effect; inconclusive = small, poorly fitted or top-dose-only effect, or another doubt; inactive = no such curve, though single readings can be large or run the other way; cell line not stated here;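 note: phosphodiesterase inhibitor Ro 20-1724 added with compounds to block cAMP breakdown; potency is the fitted concentration of half-maximal effect; nearly all actives have a fitted effect of over 60% in size; about a fifth of the inactives were tested at one dose only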
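Cells stably selected in G418 were plated at 2000/well, grown 16-24 hr, then given compounds in DMSO with the PDE inhibitor […] (300 uM solution added) for 30 min at 37C; cAMP was read by HTRF.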
Sfp PPTase inh = Sfp phosphopantetheinyl transferase inhibition; Biochemical Sfp PPTase activity, qHTS; Potency, µM, for the others: max response, negative = inhibition, actives largely listed as inhibitors; 3.5% of 310,000 active; active = well fitted inhibition curve with a large enough effect; inconclusive = small, poorly fitted or top-dose-only effect, or another doubt; inactive = no such curve, though single readings can be large or run the other way;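 note: the enzyme is Sfp with the accession as filed and its product quenches rhodamine fluorescence; potency is the fitted concentration of half-maximal effect; 0% = enzyme reaction without inhibitor and -100% = no enzyme wells; top concentration of the series not given in the record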
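Reaction rates are the 30-min fluorescence difference (ex 525, em 598 nm) in wells containing 15 nM Sfp, 5 uM rhodamine-CoA and 12.5 uM BHQ-2-YbbR at pH 7.6 with 10 mM MgCl2.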
ClpP mod = qHTS Assay for Activators of ClpP; purified B. subtilis ClpP, FRET peptide cleavage, 20 min; Potency, µM (doses to about 57.5 µM), inactives show top-dose activity change, negative = active; ATP-dependent Clp protease proteolytic subunit (Bacillus subtilis (strain 168)), P80244; 1.9% of 340,000 active; active = well fitted falling curve with a large enough effect; inconclusive = small, poorly fitted or top-dose-only effect; inactive = no such curve, though single readings can be large or run the other way; note: potency is the fitted concentration of half-maximal effect; the source files actives as falling curves though it sought activators and does not explain the sign; nearly all actives have a fitted effect of over 65% in size; many hits overshoot -100%
Target sequence (P80244 whole entry, looked up): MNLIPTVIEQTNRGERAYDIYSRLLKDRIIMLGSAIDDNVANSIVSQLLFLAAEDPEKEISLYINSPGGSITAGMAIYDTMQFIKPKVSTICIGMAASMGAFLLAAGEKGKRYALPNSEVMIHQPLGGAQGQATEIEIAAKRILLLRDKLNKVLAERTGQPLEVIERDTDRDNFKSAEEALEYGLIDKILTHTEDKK
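FRET quenching reversal measured ClpP activation: 10 microg/mL B. subtilis ClpP at pH 8 with the FRET-FV decapeptide, read at 430 nm after 320 nm excitation. The 20-min minus 0-min signal was scaled between DMSO/no-enzyme wells and ADEP (5.8 microM final).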
TRPV1 PAM = enhances activation of the human vanilloid receptor TRPV1; Q8NER1; TRPV1-expressing cells, Fluo-8 calcium influx, capsaicin EC20 potentiation; host cell line not named in the record; control for the full effect not named in the record; potentiation, % at 8.33 µM; 0.02% of 320,000 active; AID 540277; active means potentiation above 80%; inconclusive means 30% to 80%; inactive means below 30%; note: 0% is about no effect
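TRPV1-expressing cells were cultured overnight at 35.5C and loaded with Fluo-8 calcium dye for 40 to 90 min at room temperature. After a 10 s baseline, compound was added and calcium influx was read kinetically for 3 min (ex 480/em 520 nm).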
Menin MLL FP FL = inhibitors of human menin-MLL interaction, wild-type MLL peptide. Fluorescence polarization, fluorescein-MLL peptide displacement from menin. FP activity change, % at 61.4 µM. 290,000 tested, under 10 active. AID 1766; inconclusive = falling polarisation curve, or a change in total fluorescence; inactive = total fluorescence flat and polarisation flat or rising; no compound was filed as active; the % refers to the polarisation; negative = inhibition;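 note: % of control where 0% means no effect; inhibitors lower the polarisation; unlabelled MLL peptide was the positive control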
* = called active by the depositor; u = inconclusive; x = no result given; & = joins results of further samples; [ ] = dose if it differs, or a comment.

SMILES	gsp antagonist	TRPML1 blocker	gsp ag	Sfp PPTase inh	ClpP mod	TRPV1 PAM	Menin MLL FP FL
CCO[C@H]1OC(C(=O)N2CCN(Cc3ccc4c(c3)OCO4)CC2)=C[C@@H](c2ccccc2)[C@@H]1CCCO	-5%	-4	x	16%	0.2%	6	-0.6
COCCN(CC(=O)Nc1cccc(C)c1C)C(=O)c1oc2ccccc2c1C	-4%	14	-21%	x	1.9%	x	x
CC(C)c1nnc(NC(=O)COc2ccccc2[N+](=O)[O-])s1	-1%	9	-16%	4%	x	x	-0.8
CCC(C)(C)NC(=O)C(c1ccc(OC)cc1)N(C(=O)CCC(=O)Nc1cc(C)on1)c1ccc(F)cc1 (centres undefined)	-8%	21	15%[15.4 µM]	-2%	u	-2	-2.9
CCOC(=O)C1(Cc2cccc(OC)c2)CCCN(Cc2ccc(NC(C)=O)cc2)C1 (centres undefined)	0%	1	-1%	10%	0.4%	-24	6.4
Cc1cc(Nc2cccc(F)c2)nc(NCc2ccccc2)n1	-8%	36	u	56µM*	-24%	-11	1.9
CSc1cccc(NC(=O)C2CCCN(S(=O)(=O)c3cccs3)C2)c1 (centres undefined)	-15%	-5	-11%	28%	x	28	1.6
CCc1nnc(SCc2ccc(OC)c(Br)c2)n1N	3%	0	7%	-10%	2.0%	0	-1.3
O=[N+]([O-])c1cc(/C=N\O)ccc1Oc1ccc(F)cc1	0%	31	u	u	0.0%	-11	8.4
O=C(OCC(=O)N1CCN(c2cccc(Cl)c2)CC1)c1ccco1	5%	4	21%	x	0.9%	-4	x
O=C(Cc1ccccc1)Nc1cccc(S(=O)(=O)N2CCCCCC2)c1	-5%	28	0%	x	-0.1%	-11	x
COc1ccc(C)cc1NC(=O)CSc1nnc(-c2ccc(OC)c(OC)c2)n1N	1%	17	-51%[inhibitor]	-7%	-1.0%	u	-8.2
Cc1[nH]c2ccccc2c1/C=C/c1nc2ccccc2c(=O)n1CCO	u	6	-17%[15.4 µM]	19%	5.2%	u	u
Cc1ccc(C(=O)NCC(=O)OCC(=O)c2c(N)n(C)c(=O)n(C)c2=O)s1	4%	12	3%	6%	-0.7%	15	-2.4
COc1ccc(CNCc2ccc3c(c2)OCO3)c(OC)c1OC	-9%	15	-1%[15.4 µM]	-15%	0.4%	-2	0.6
CSc1ccccc1OCc1cc(C(=O)N2CCN(c3ncccn3)CC2)no1	-20%	-6	8%	u	-24%	0	x
CC(C)c1ccc(NC(=O)NC2CCCCC2)cc1	0%	-8	3%	-5%	-1.3%	-19	-1.4
CS(=O)(=O)N1CCc2ccccc2C1	9%	14	12%	14%	-1.8%	6	2.5
COc1cc(/C=C2\SC(=O)NC2=O)ccc1OCC(=O)N1CCOCC1	-23%	-15	15%[15.4 µM]	x	1.0%	x	x
CCN(CC)c1ccc(C(NC(=O)C(C)C)c2ccc3cccnc3c2O)cc1 (centres undefined)	x	7	-65%[inhibitor]	x	1.3%	x	x
CSCC[C@H](NC(=O)Cc1ccc(Cl)cc1)C(=O)N1CCC2(CC1)NCCc1[nH]cnc12	10%	-9	30%	0%	-0.1%	1	x
COc1ccc(/C=C/C(=O)OCC(=O)c2c(N)n(C)c(=O)n(C)c2=O)cc1	11%	23	u	1%	6.0%	14	5.0
NS(=O)(=O)c1cccc(NC(=O)COC(=O)Cc2ccc(Cl)cc2)c1	3%	-5	2%	-8%	x	-11	-2.9
COc1ccc(C)cc1NC(=O)Cc1csc(NC(=O)Nc2ccccc2OC)n1	x	-7	-18%	x	-1.9%	x	x
CN(Cc1nccn1C)C(=O)C1CCC(=O)N(CCc2ccc(Cl)cc2)C1 (centres undefined)	12%	6	-5%	22%	-1.2%	-8	x
The listing continues:
SMILES	gsp antagonist	TRPML1 blocker	gsp ag	Sfp PPTase inh	ClpP mod	TRPV1 PAM	Menin MLL FP FL
CON(C)C(=O)c1ccccc1N(C)C(=O)OC(C)(C)C	12%	16	-27%	x	-2.9%	x	x
COc1ccc(N2C(=O)C(=O)/C(=C(/O)c3ccc(C)cc3)C2c2cccnc2)cc1 (centres undefined)	7%	-3	-1%[15.4 µM]	-9%	0.9%	-10	2.3
CCNC(=O)COC(=O)c1ccc(-c2nc3ccccc3s2)s1	7%	33	26%	6%	4.6%	0	-1.8
COc1ccc(OC(=O)C2CC(=O)N(c3ccc(C)cc3)C2)cc1 (centres undefined)	-1%	17	-1%[15.4 µM]	1%	x	-9	-1.1
O=C(Cn1ncc(Cl)c(Cl)c1=O)N1CCN(S(=O)(=O)c2ccc3ccccc3c2)CC1	16%	-6	9%	13%	x	1	4.7
CCC[C@@H](CN1CCC[C@H]1CN1C(N)=NC[C@H]1C(C)C)N1C[C@@H](Cc2ccccc2)N(CCCC2CCCC2)C1=N	0%	7	x	x	1.0%	x	x
O=C(CNC(=O)c1ccc(Cl)cc1)OCN1C(=O)c2ccccc2C1=O	-1%	8	-19%	x	-2.3%	x	x
CCCN(CC1CC1)C(=S)NC(=O)c1ccccc1Br	9%	10	2%	x	0.3%	-26	x
O=C(c1ccc(Cl)nc1)N1CCc2ccccc2C1	-1%	22	-16%	7%	-1.3%	19	5.0
Cc1ccc(NC(=O)c2c(-c3ccccc3)noc2C)nc1	14%	-4	2%	11%	0.8%	-8	2.8
Cc1ccc(S(=O)(=O)CC2CSc3nnc(C)c(=O)n32)cc1 (centres undefined)	2%	-10	-3%	4%	-0.1%	8	1.4
COc1ccc(NCC(=O)Nc2ccc(Cl)cc2C)c(OC)c1	u	-15	-12%	-4%	-3.2%	8	4.6
OCCCNC(=S)Nc1ccc2nccnc2c1	6%	1	11%	-22%	-9.5%	-1	-2.9
O=C(CSC1=Nc2ccccc2C2=NC(CC(=O)NCc3ccco3)C(=O)N12)NCC1CCCO1 (centres undefined)	20%	-4	-1%	-16%	u	-7	-1.3
O=C(NCC(=O)N1CC=C(c2ccccc2)CC1)c1ccc(F)cc1	-2%	5	24%[15.4 µM]	x	0.0%	x	x
COc1ccc(OC2CCN(S(=O)(=O)c3cccc(F)c3)CC2)cc1	-9%	-10	-23%	-6%	-0.4%&-7.3%	-3	-4.0
c1ccc2c(N3CCOCC3)c3c(nc2c1)CCC3	1%	7	9%	3%	-0.5%	-4	-1.9
O=c1oc2ccccc2n1Cc1ccccc1F	13%	x	10%	18%	-1.5%	1	18
CCCCNCCCOc1ccc(C)cc1Br	7%	-16	-35%[inhibitor]	-24%	-5.6%	-4	-2.0
COc1ccc(S(=O)(=O)N2CCN(C(=O)CN3C(=O)NC4(CCCC4)C3=O)CC2)cc1	-1%	-10	-18%	5%	0.1%	7	x
O=C1CC(N2CCN(c3nc4ccccc4s3)CC2)C(=O)N1c1ccc(F)cc1 (centres undefined)	-21%	19	-4%	-3%	0.3%	-1	2.2
COc1ccc2oc(N)nc2c1	7%	-4	3%[15.4 µM]	x	-1.7%	x	x
COCCNC(=O)CN(C(=O)CCC(=O)Nc1ccccn1)c1ccc(F)cc1	5%	13	-31%[inhibitor]	15%	-0.8%	-13	-1.0
CCOC(=O)C1CCCN(C(=O)c2cc(-c3ccncc3)nc3ccccc23)C1 (centres undefined)	4%	3	u	x	0.4%	1	x
Cc1nc([N+](=O)[O-])c(N2CCN(C)CC2)n1Cc1ccccc1	5%	-20	10%	6%	-1.7%	2	5.0
New compounds follow
SMILES	gsp antagonist	TRPML1 blocker	gsp ag	Sfp PPTase inh	ClpP mod	TRPV1 PAM	Menin MLL FP FL
N#CC1(Cc2ccc([N+](=O)[O-])cc2)c2ccccc2C=CN1C(=O)c1ccccc1 (centres undefined)	1%[15.4 µM]	53	19%	8%	-3.5%	-6	5.3
CCCCn1cnc2c1c(=O)n(C)c(=O)n2C	11%	8	u	11%	-1.4%	-1	2.0
Cc1c(C(=O)NCCc2ccc3c(c2)OCCO3)oc2ccccc12	-5%	-3	-5%	7%	1.2%	-12	-5.2
CCC(C)(C(=O)NC1CCCC1)N(C(=O)CC1NC(=O)NC1=O)c1ccc(C)cc1 (centres undefined)	1%	-5	-13%	9%	1.1%	12	2.9
COc1cccc(C(=O)NCc2cccnc2)c1	-1%	1	-46%[inhibitor]	-3%	-0.5%	6	-1.6
Cc1cc(Cl)ccc1OCc1nc(-c2ccc(O)cc2)n[nH]1	18%	12	-33%	15%	-5.2%	1	5.5
CN(C)c1ccc(C(CC(=O)c2ccccc2)C2CCCCC2=O)cc1 (centres undefined)	3%	22	-9%[15.4 µM]	21%	x	-12	1.4
Cc1nccn1-c1ccc(C(F)(F)F)cc1NC=O	0%	7	-30%[inhibitor]	4%	-1.1%	-3	2.0
O=C(CCN1C(=O)c2ccccc2C1=O)Oc1ccc2ccccc2c1	-8%	-1	-13%	-4%	3.3%	0	3.6
O=C(NC1CCN(Cc2ccccc2)CC1)C1COc2ccccc2O1 (centres undefined)	14%	31	-10%	17%	0.9%	-7	-0.9
CC1CCN(C(=O)Cn2nnc(-c3ccc(N)cc3)n2)CC1	5%	-1	-29%[15.4 µM]	0%	-3.1%	-3	-3.4
O=C1C=C(c2cc(F)ccc2F)C[C@@H](c2ccc(F)cc2)C1	-9%	-3	-4%	x	1.1%	-10	x
Cc1ccc(OCCn2cnc3c(N)ncnc32)cc1	4%	-14	u	21%	0.0%	4	-1.2
O=C(CN1C(=O)CCSc2ccccc21)Nc1ccc2c(c1)OCO2	-1%	-11	-6%	-1%	0.1%	8	-0.7
COc1ccccc1NS(=O)(=O)c1cccc(C(=O)N/N=C2\CC(=O)CC(C)(C)C2)c1	-6%	-23	-46%[inhibitor]	-13%	-4.8%	-2	-0.9
CCOC(=O)c1c(C)[nH]c(C(=O)OCC(=O)NCc2ccc(OC)c(OC)c2)c1C	0%	-23	-1%	x	-3.7%	-15	x
Cc1nnc(SCc2nnc(-c3ccc(Cl)cc3)o2)n1-c1ccccc1	-3%	-4	-3%	-8%	-4.4%	7	-2.1

High-throughput results as filed in PubChem BioAssay.
